TRPML1 inh: human mucolipin-1 channel inhibition. TRPML1-inducible cells, Ca2+ dye fluorescence, FDSS; hits give low values; inhibition of EC80 agonist-evoked calcium signal. activity change, negative = inhibition, % (concentration not given with the values). hit rate 0.02% among 390,000. AID 624415; in the data active means activity change below about -50%; inconclusive means about -30% to -50%; inactive means above about -30%;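 note: stimulus is agonist 54-4 at its EC80 concentration; % is set by controls: 0 for no effect and ±100 for the full control effect; compound concentration not given in the record; the text of the record puts the active cut at -80%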
Target sequence (Q9GZU1 whole entry, looked up): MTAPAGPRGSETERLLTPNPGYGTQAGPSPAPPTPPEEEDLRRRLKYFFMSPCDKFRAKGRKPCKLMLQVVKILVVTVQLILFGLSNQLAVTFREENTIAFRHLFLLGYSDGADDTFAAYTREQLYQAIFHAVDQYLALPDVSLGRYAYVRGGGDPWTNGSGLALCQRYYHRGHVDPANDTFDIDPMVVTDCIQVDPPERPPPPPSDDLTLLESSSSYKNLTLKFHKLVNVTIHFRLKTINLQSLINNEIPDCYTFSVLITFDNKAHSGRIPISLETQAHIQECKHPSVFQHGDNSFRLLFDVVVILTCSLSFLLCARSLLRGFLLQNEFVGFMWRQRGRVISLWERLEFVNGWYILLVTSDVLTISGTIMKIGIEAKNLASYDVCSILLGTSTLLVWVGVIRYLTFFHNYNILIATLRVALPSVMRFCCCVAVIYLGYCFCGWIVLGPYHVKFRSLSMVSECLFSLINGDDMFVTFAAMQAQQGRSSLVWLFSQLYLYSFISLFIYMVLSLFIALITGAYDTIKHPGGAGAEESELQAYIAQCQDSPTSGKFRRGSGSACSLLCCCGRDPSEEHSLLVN
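Calcium fluorescence in TRPML1-DL cells induced overnight with Tet: a 110 s read after compound pin addition, then a 110 s antagonist read after challenge with 54-4 at 4 uM final (EC80).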
ClpP mod: qHTS Assay for Activators of ClpP; ATP-dependent Clp protease proteolytic subunit (Bacillus subtilis (strain 168)), P80244; purified B. subtilis ClpP, FRET peptide cleavage, 20 min; Potency, µM (top dose mostly 57.5 µM), inactives show at the highest dose activity change, negative = active; hit rate 1.9% among 340,000; active = well fitted falling curve with a large enough effect; inconclusive = small, poorly fitted or top-dose-only effect; inactive = no such curve, though single readings can be large or run the other way; note: potency is the fitted concentration of half-maximal effect; the source files actives as falling curves though it sought activators and does not explain the sign; nearly all actives have a fitted effect of over 65% in size; many hits overshoot -100%
Target sequence (P80244 whole entry, looked up): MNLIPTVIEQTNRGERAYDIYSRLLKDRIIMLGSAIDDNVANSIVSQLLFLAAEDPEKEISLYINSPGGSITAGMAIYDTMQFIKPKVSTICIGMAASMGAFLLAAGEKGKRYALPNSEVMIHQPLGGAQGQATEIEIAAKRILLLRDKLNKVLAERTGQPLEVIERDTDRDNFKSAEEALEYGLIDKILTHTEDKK
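Purified B. subtilis ClpP, 10 microg/mL final in Tris/HCl pH8 with KCl, BSA, glycerol and Tween-20, cleaved an Abz/nitrotyrosine-quenched decapeptide. Fluorescence (ex 320, em 430) was read at 0 and 20 min at room temperature. Delta was normalized to 5.8 microM ADEP and DMSO/no-enzyme controls.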
TRPML1 ag: activates the human TRPML1 channel; Q9GZU1; TRPML1-expressing cells, Ca2+ dye fluorescence, FDSS; host cell line not named in the record; reference of the full effect not given here; activation, % (concentration not given with the values); hit rate 0.12% among 410,000; AID 624414; in the data active = activation above about 50%; inconclusive = about 30% to 50%; inactive = below about 30%; note: 0% is about no effect; the text of the record puts the active cut at 80%
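In this qHTS format, compounds were pin-transferred onto Ca8-dye-loaded TRPML1-DL cells induced with Tet overnight, and intracellular Ca2+ fluorescence was recorded kinetically for 110 s after a 10 s baseline. A subsequent 4uM final 54-4 (EC80) addition followed by a second 110 s read served as the antagonist phase.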
gsp antagonist: antagonists of gsp mutant (McCune-Albright syndrome) | hit rate 0.4% among 340,000 | gsp-mutant cells, cAMP HTRF, 30 min; control for the full effect not named in the record | Potency, µM (highest dose often 76.9 µM), without a hit: at the top dose activity change, negative = inhibition, hits mostly inhibitors | AID 624288; active = falling curve of any shape with a large fitted effect; inconclusive = falling curve, mostly with a smaller effect; inactive = flat or rising curve; cell line not stated here;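 note: intracellular cAMP measured with PDE inhibitor Ro 20-1724 present during compound exposure; potency is the fitted concentration of half-maximal effect; % is set by controls: 0 for no effect and ±100 for the full control effect; nearly all actives have a fitted effect of over 65% in size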
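Measurement of cellular cAMP by homogeneous time-resolved fluorescence following a 30 min compound exposure at 37C. The PDE inhibitor […] was present throughout; the assay buffer was DPBS with 0.05% BSA and 0.005% Tween 20.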
gsp ag: agonists of gsp mutant (McCune-Albright syndrome); gsp mutant cells, cAMP HTRF, 30 min; control for the full effect not named in the record; Potency, µM (highest dose often 76.9 µM), for the others: at the top dose activation (cAMP increase), usual class: activators; hit rate 0.13% among 340,000; active = well fitted activation curve with a large enough effect; inconclusive = small, poorly fitted or top-dose-only effect, or another doubt; inactive = no such curve, though single readings can be large or run the other way; cell line not stated here;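 note: phosphodiesterase inhibitor Ro 20-1724 added with compounds to block cAMP breakdown; potency is the fitted concentration of half-maximal effect; nearly all actives have a fitted effect of over 60% in size; about a fifth of the inactives were tested at one dose only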
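Cells stably selected in G418 were plated at 2000/well, grown 16-24 hr, then given compounds in DMSO with the PDE inhibitor […] (300 uM solution added) for 30 min at 37C; cAMP was read by HTRF.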
Menin-MLL FL inh: displaces fluorescein MLL peptide from human menin | Fluorescence polarization, fluorescein-MLL peptide displacement from menin | FP activity change, % at 61.4 µM | 290,000 tested, under 10 active; inconclusive = falling polarisation curve, or a change in total fluorescence; inactive = total fluorescence flat and polarisation flat or rising; no compound was filed as active; the % refers to the polarisation; negative = inhibition;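 note: % of control where 0% means no effect; inhibitors lower the polarisation; unlabelled MLL peptide was the positive control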
Active calls of the source: *; ? = inconclusive; nt = not tested or not shown; & = joins results of further samples; [ ] = remark or other dose. Rows are unselected; overall some 2.1% were active at least once.

SMILES | TRPML1 inh | ClpP mod | TRPML1 ag | gsp antagonist | gsp ag | Menin-MLL FL inh
O=C(O)Cn1nnc(COc2ccccc2)n1 | 9 | nt | 0.8 | 7% | 21%[15.4 µM] | 0.2
Cc1c(C(=O)Nc2cccc([N+](=O)[O-])c2)cnn1-c1ccccc1 | 5 | -3.8% | -1.0 | -20% | -12% | 5.1
COc1ccc(-c2cc(=O)[nH]c(=S)[nH]2)cc1 | 0 | nt | 0.0 | 0% | 10µM* | 1.1
O=c1oc(-c2ccccc2F)nc2c1cnn2-c1ccccc1 | -7 | 36% | -0.2 | 20% | 18% | -4.0
COc1ccccc1NC(=O)c1cc[n+]([O-])cc1 | 7 | -2.5% | -0.8 | -7% | 4% | 0.7
CCc1nc2ccc(C(=O)N3CCN(c4cccc(C)c4C)CC3)cc2nc1CC | -26&3 | 0.7%&-21% | 1.6&-0.9 | -18% | 7% | -0.6
CCOC(=O)c1nn(-c2ccc(F)cc2)c2nc(Nc3ccccc3)cc(=O)n12 | -1 | -26% | 0.3 | -3% | -9%[15.4 µM] | 4.3
CCCN1C2CCCC1CC(NC(=S)Nc1cccc(C)c1)C2 (stereo not drawn) | 7 | 1.0% | 0.0 | 0% | -32% | -4.4
CCc1cccc(CC)c1NC(=O)CCS(=O)(=O)c1ccc2c(c1)CCN2C(C)=O | -17 | 0.1% | 0.3 | nt | nt | nt
CCCCn1nc(C(=O)N2CCc3ccccc32)c2ccccc2c1=O | 0 | 1.3% | 1.5 | -34% | 8% | 3.7
CCOC(=O)c1cccc(NC(=O)/C(=C\c2ccccc2)NC(=O)c2ccccc2Cl)c1 | 10 | -0.4% | 0.9 | 2% | -7% | -1.1
O=C(Nc1ccnn1C1CCN(C(=O)c2cccnc2)CC1)c1cccc(F)c1 | 4 | -0.7% | 0.0 | nt | 2% | nt
CC(C)Oc1ccc(OCCSc2nc3ccccc3n2CC(=O)O)cc1 | nt | -11% | nt | -3% | -11% | 4.0
CC(=NCC1CCNCC1)C1=C(O)CC(C)(C)CC1=O | -11 | -1.2% | 0.3 | 8% | -19% | 1.4
COc1cccc(CN2CCN(C(=O)c3cccc4ccccc34)CC2)c1OC | -3 | -0.6% | -0.1 | -4% | -39%[inhibitor] | 2.4
O=C(CC1N=C2c3ccccc3N=C(SCc3ccccc3Cl)N2C1=O)NCc1ccco1 (stereo not drawn) | 26 | -21% | -0.6 | -9% | 16% | 6.6
Cc1nc(N2CCN(c3ccccn3)CC2)c2c(C)c(C(=O)Nc3ccc(F)c(Cl)c3)sc2n1 | -7 | 3.9% | -0.2 | -20% | -9% | -0.2
CCOC(=O)C1=C(C)N(CCO)C(=O)NC1c1cccc(O)c1 (stereo not drawn) | -7 | 0.7% | 1.0 | 1% | -6% | 0.1
CN1CCN(c2ccc(S(=O)(=O)N3CCCCC3)cc2NC(=O)COc2ccc(F)cc2)CC1 | -8 | -3.7% | -0.4 | 8% | 3%[15.4 µM] | nt
CCOc1ccccc1NC(=O)COC(=O)Cc1cccs1 | 8 | -2.9% | -0.3 | 0% | 1%[15.4 µM] | 0.2
O=C(NC1CCN(Cc2ccccc2)CC1)c1ccc(Cn2c(=O)c3ccccc3n(Cc3cccc(F)c3)c2=O)cc1 | 24 | -4.7% | 0.5 | nt | nt | nt
CCC(Sc1nc2sc(C(=O)OC)c(C)c2c(=O)n1N)C(=O)N(CC)CC (stereo not drawn) | 5 | 5.5% | -0.6 | 11% | 16% | -1.9
Cc1onc(-c2ccccc2)c1C(=O)NC(C)CCc1ccccc1 (stereo not drawn) | -1 | nt | -0.3 | 6% | 19% | -5.0
Cc1cccnc1NC(=S)NCCc1ccccc1 | -1 | nt | 1.3 | -6% | 5% | 0.6
COc1ccc(NC(=O)CN(C)CCOc2ccc(Cl)cc2)cc1OC | 4 | -0.1% | 0.8 | -22% | -36%[inhibitor] | -0.2
CN(C)S(=O)(=O)c1ccc(C(=O)Nc2cc3c(cc2C(=O)O)OCCCO3)cc1 | 19 | nt | -0.2 | nt | 1%[15.4 µM] | 0.1
COCc1nn2c(N)c(C#N)cnc2c1-c1ccccc1 | 12 | 1.5% | 1.6 | -6% | -3% | 0.3
[O-]/[N+](=C/c1ccco1)c1ccccc1 | 12 | 0.1% | 0.0 | 7% | 6% | -0.3
COc1ccc(NC(=O)c2ccccc2NC(=O)NC2CCCCC2)cc1 | 18 | -0.7% | -0.1 | 1% | -13% | 2.3
Cc1ccc(Cn2c(SCc3ccc(C(=O)N4CCCCC4)cc3)nc3ccncc32)cc1 | 49 | -15% | 3.3 | nt | nt | nt
COc1ccc(NC(=O)CSc2cc(-c3ccccc3)nc(C)n2)cc1 | -13 | 31% | -0.3 | nt | nt | nt
CCn1c(=O)c2cc(C(=O)N(C)c3cc(Cl)c(OC)cc3OC)sc2c2ccccc21 | 0 | 0.2% | -0.3 | nt | nt | nt
COC(=O)c1sccc1OCc1cccc(OC)c1 | -20 | -1.8% | 0.0 | 6% | -5% | -0.9
O=C(Nc1cccnc1)c1ccc2c(c1)OCO2 | 4 | 0.7% | -1.0 | 9% | -9% | 5.5
Cc1ccc2oc(-c3ccc(C)c(NC(=O)c4ccc(C(C)(C)C)cc4)c3)nc2c1 | 2 | -10% | 1.1 | nt | nt | nt
CC(C)CNc1ncnc2[nH]ncc12 | 30 | nt | 0.8 | -4% | 17% | nt
COc1ccc(N(CC(=O)N2c3ccccc3CC2C)S(=O)(=O)c2c(C)nn(C)c2C)cc1 (stereo not drawn) | -2 | 0.5% | 0.7 | -11% | -21% | -2.0
O=C(CC1C(=O)NCCN1Cc1ccccc1C(F)(F)F)NCCn1cccn1 (stereo not drawn) | 25 | nt | 0.5 | -5% | 3% | ?
COc1ccc(/C=N/Nc2ccc([N+](=O)[O-])cc2)cc1Cn1cc([N+](=O)[O-])cn1 | -4 | 0.7% | 1.4 | -13% | -27% | ?
CCOc1ccc(C2=Nn3c(nnc3-c3cccnc3)SC2)cc1 | 9 | -1.7% | -0.9 | 5% | 1% | 11
CC(C)CC(NC(=O)OC(C)(C)C)C(=O)NC(C(=O)N1CCCC1C(N)=O)C(C)C (stereo not drawn) | 7 | -1.0% | -0.8 | -11% | -35%[inhibitor] | 1.9
Cc1ccc(Cc2nnc3n(-c4ccccc4)nc(C(=O)c4ccccc4)n3c2=O)cc1 | -2 | 0.3% | 1.8 | 3% | -14% | -3.0
O=C1CSC(=Nc2cccc(C(=O)O)c2)N1 | -12 | 0.7% | 1.1 | -3% | -2%[15.4 µM] | 0.0
CCCCN(C)C1CCN(C(=S)Nc2ccc(OCC)cc2)CC1 | 2 | nt | -0.2 | 19% | -18%[15.4 µM] | -5.9
CN(CC(=O)Nc1ccccc1Cl)C(=O)C1CCN(C(=O)c2ccc(F)cc2)CC1 | 10 | -1.0% | -1.3 | -3% | 5% | nt
CC1CCN(S(=O)(=O)c2ccc3c(c2)N(CC(=O)NCc2cccnc2)C(=O)CS3)CC1 | -17 | 1.6% | 0.5 | -17% | 3% | 3.1
COc1ccc(N2CCN(C(=O)COC(=O)c3nc(Cl)ccc3Cl)CC2)cc1 | 15 | 2.9% | -0.6 | nt | -15% | nt
CCn1nc(NC(=O)COC)c2cc3cccc(C)c3nc21 | 13 | -2.5% | 4.3 | 0% | 4% | -1.3
CN(NC1OC(=O)c2ccccc21)c1ccccc1[N+](=O)[O-] (stereo not drawn) | -1 | nt | 0.5 | -3% | 6%[15.4 µM] | 2.1
COc1ccc(NC(=O)Cn2c(=O)n(-c3ccccc3)c(=O)c3oc4ccccc4c32)c(OC)c1 | -9 | -22% | 0.0 | -3% | -28%[15.4 µM] | 6.7
Cc1cccc(Nc2nc(Nc3cccc(C)c3)nc(N3CCOCC3)n2)c1 | 1 | ? | 0.3 | nt | nt | nt
CN(C(=O)c1cccc(NC(=O)Cc2cccc(NC(=O)C3CCN(C(=O)C4CCC4)CC3)c2)c1)C1CCC1 | -8 | 0.9% | 0.5 | -5% | nt | nt
COc1ccc(-c2c(C)nn3c(N4CCN(c5ccccc5)CC4)cc(C)nc23)cc1OC | -22 | -8.0% | -1.1 | nt | nt | nt
Cc1ccc(S(=O)(=O)N2CCN(C(=O)CSc3nc(N)cc(=O)[nH]3)CC2)c(C)c1 | -8 | nt | 0.1 | 1% | 11%[15.4 µM] | -0.1
COc1cccc(C2/C(=C(\O)c3ccc4c(c3)OCCO4)C(=O)C(=O)N2CCCn2ccnc2)c1 (stereo not drawn) | -12 | 0.9% | 0.6 | 25% | 13µM* | -1.1
COc1ccc(CCNC(=O)CSc2nnc(CNC(=O)c3ccccc3F)o2)cc1OC | -8 | -0.3% | -0.1 | 5% | -44%[inhibitor] | 2.1
Cc1ccc(CSc2nc3ccccc3c3nc(CCn4c(C)nc5ccccc54)nn23)cc1 | -1 | -6.0% | 0.4 | nt | nt | nt
CCN(CC)CCN(C(=O)c1ccc2c(c1)OCCO2)c1nc2c(Cl)cccc2s1 | 22 | -9.2% | 0.7 | 7% | -35%[inhibitor] | -1.1
Cc1cccc(COCC(CC(C)C)N2CCN(C(=O)c3ccc(C(F)(F)F)cc3)CCC2=O)c1 (stereo not drawn) | 8 | 2.0% | 0.7 | -9% | nt | -0.2
CC(=O)c1c(N)nc2n(c1=O)CCCCC2 | 23 | -2.4% | -0.4 | 8% | 8% | -4.2
Further entries.
SMILES | TRPML1 inh | ClpP mod | TRPML1 ag | gsp antagonist | gsp ag | Menin-MLL FL inh
Cc1cc(NC(=O)C(C)SCC(=O)Nc2cc(C(F)(F)F)ccc2N2CCOCC2)no1 (stereo not drawn) | 16 | nt | 0.5 | 3% | 2%[15.4 µM] | nt
COc1ccccc1NC(=O)CN1CCN(c2ccccc2F)CC1 | 11 | -3.3% | 4.8 | -9% | -43%[inhibitor] | ?
O=C(Nc1ccc(C(=O)NN2C(=O)c3ccccc3C2=O)cc1)c1ccccc1 | -23 | -5.2% | 2.6 | 6% | 9% | 1.0
CC1(C)CC2(CCO1)OC(=O)CC2C(=O)Nc1ccc(Br)cc1 (stereo not drawn) | 20 | nt | 0.6 | -1% | -5%[15.4 µM] | 2.5
CCOc1ccccc1C(=O)N[C@H](C(=O)NNC(=O)c1cccs1)C(C)C | 7 | -1.1% | 0.2 | ? | -36%[inhibitor] | nt
C=CCN1C(=O)/C(=C\c2ccc(Oc3nc(N4CCOCC4)nc(N4CCOCC4)n3)c(OC)c2)SC1=S | 9 | nt | 0.5 | 4% | -11%[15.4 µM] | ?

Screening results as filed in PubChem BioAssay.
